Screening results: PubChem, Vanderbilt University
GIRK2 act: activators of human GIRK2 potassium channels; HEK293-GIRK2 thallium flux, Thallos fluorescence; calls only for hits at 25 µM; hit rate 0.05% among 63,000;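 active = among the strongest 0.2% of first-round signals and kept after retests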;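 also: first round at about 10 µM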
Target sequence (P48051 whole entry, looked up): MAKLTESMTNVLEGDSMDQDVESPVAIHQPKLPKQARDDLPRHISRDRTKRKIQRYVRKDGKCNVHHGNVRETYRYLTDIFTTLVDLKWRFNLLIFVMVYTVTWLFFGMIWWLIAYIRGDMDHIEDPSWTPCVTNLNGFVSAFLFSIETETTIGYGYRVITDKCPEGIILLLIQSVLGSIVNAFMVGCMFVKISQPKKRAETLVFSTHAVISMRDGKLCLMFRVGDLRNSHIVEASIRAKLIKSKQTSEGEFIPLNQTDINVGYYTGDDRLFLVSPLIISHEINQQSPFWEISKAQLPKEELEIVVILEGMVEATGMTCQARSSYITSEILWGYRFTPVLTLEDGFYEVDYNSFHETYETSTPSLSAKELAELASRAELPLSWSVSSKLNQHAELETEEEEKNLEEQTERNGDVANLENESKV
Calls only; i = inactive. A portion of the library (hit frequency here may not be typical).

No.	compound	GIRK2 act
1	COc1cccc2sc(N(C)CC(=O)Nc3ccccc3C(N)=O)nc12	i
2	Cc1nc(C)c(C(=O)C2=C(O)C(=O)N(CCN(C)C)C2c2cccc([N+](=O)[O-])c2)s1 (centres undefined)	i
3	COc1cccc(S(=O)(=O)NCc2ccc(C(=O)N3CCN(c4ccccc4)CC3)cc2)c1	i
4	COc1cccc(C(=O)Nc2cnc(N3CCN(C)CC3)nc2)c1	i
5	COc1cccc(CC(=O)Nc2ccc(-n3nnn(C)c3=O)cc2)c1	i
6	CC(=O)c1ccc(NC(=O)Cn2c(=O)c(CNc3ccc(C)cc3)cc3cc4c(cc32)OCCO4)cc1	i
7	CCN1CCCc2cc(CCNC(=O)C(=O)NCc3ccc(Cl)cc3)ccc21	i
8	Cc1ccc(NC(=O)Cn2nc3c(Oc4ccccc4C)nccn3c2=O)cc1	i
9	Cc1cc(C)n(CC(=O)N2CCN(c3ccc(F)cc3)CC2)c(=O)c1C#N	i
10	O=C(Cn1ccn(-c2cccc(Cl)c2)c(=O)c1=O)c1ccc(F)cc1	i
11	Cc1ccc(NC(=O)Cn2cnc3c(oc4ccccc43)c2=O)c(Cl)c1	i
12	Cc1cc(C(O)CCNS(=O)(=O)CCc2ccccc2)c(C)o1 (centres undefined)	i
13	COc1ccc(-c2csc3c(=O)n(CC(=O)NCCCc4ccccc4)cnc23)cc1	i
14	COc1ccc(F)cc1S(=O)(=O)NCCn1nc(C(F)(F)F)n(C)c1=O	i
15	Cc1cc(N2CCN(C(=O)Cn3nc(C)ccc3=O)CC2)ncn1	i
16	NS(=O)(=O)c1ccc(CCNC(=O)c2ccc3c(=O)n(CCC4=CCCCC4)c(=S)[nH]c3c2)cc1	i
17	Cc1ccc(NC(=O)C2CCN(c3ccc(=O)n(C)n3)CC2)cc1F	i
18	O=C(CN1CCN(c2cccc(Cl)c2)C1=O)NCCCc1ccccc1	i
19	CCc1cccc(OCC(O)Cn2c(NCCN(CC)CC)nc3c2c(=O)[nH]c(=O)n3C)c1 (centres undefined)	i
20	COc1ccc(OC)c(-c2cc(C(=O)NCC#CCN3CCc4ccccc4C3)[nH]n2)c1	i
21	COc1ccc(NC(=O)C(=O)NCCc2ccccc2OC)cc1Cl	i
22	CCC(C)NC(=O)c1ccc2c(=O)n(C(C)C)c3nn(Cc4c(F)cccc4Cl)c(=O)n3c2c1 (centres undefined)	i
23	CCOC(=O)Cc1csc(NC(=O)CN2CC(c3nc(-c4cccs4)no3)C2)n1	i
24	COc1ccc(C(=O)c2cn(Cc3cccc(OC)c3)c3cc4c(cc3c2=O)OCO4)cc1	i
25	COc1ccc(N2CCN(c3nc4c(c(=O)n(C)c(=O)n4C)n3CC(O)COc3cccc(C)c3)CC2)cc1 (centres undefined)	i
26	COc1ccccc1N1CCN(C(=O)Cc2c(C)nc(SCc3ccccc3)[nH]c2=O)CC1	i
27	O=C(Nc1cccs1)N1CCC(c2ccccc2)C1 (centres undefined)	i
28	C/C(Cl)=C\Cn1c(N2CCOCC2)nc2c1c(=O)n(C)c(=O)n2C	i
29	Cc1nnsc1C(=O)N1CCC(CNC(=O)C(=O)Nc2cc3c4c(c2)C(C)C(=O)N4CCC3)CC1 (centres undefined)	i
30	COc1ccc(CNC(=O)CC2CCCCN2S(=O)(=O)c2ccc(F)cc2)cc1 (centres undefined)	i
31	CCCn1cc(-c2nc(-c3ccccc3)no2)c(=O)c2cc(F)ccc21	i
32	CCc1nc(NC(=O)c2cccc(Br)c2)sc1C(=O)OC	i
33	O=C(/C=C/c1ccco1)N1CCC(Cn2c(COc3ccccc3)nc3ccccc32)CC1	i
34	CCOC(=O)N1CCc2c(sc(NC(=O)C3CCCCC3)c2-c2nc3ccccc3s2)C1	i
35	COc1ccccc1OCC(=O)N1CC(c2nc(-c3cccc(Cl)c3)no2)C1	i
36	COc1ccc(-c2c(C)oc3cc(OCC(=O)c4ccccc4)ccc3c2=O)cc1	i
37	Cc1cccc(Oc2nccn3c(=O)n(CC(=O)NCCCc4ccccc4)nc23)c1C	i
38	O=C(NCC1(O)CCc2ccccc2C1)C1CC1 (centres undefined)	i
39	O=S(=O)(C1CC1)N1CCC(c2ccccc2)C1 (centres undefined)	i
40	O=c1c2ccccc2nc(SCc2nc(-c3ccc(F)cc3)no2)n1Cc1ccc2c(c1)OCO2	i
41	CC1(C)C2CCC1(C(=O)Nc1ccc(F)c(F)c1)C(=O)C2 (centres undefined)	i
42	COCCc1nnc(NC(=O)CCCS(=O)(=O)c2ccc(Cl)cc2)o1	i
43	COc1ccc(S(=O)(=O)Nc2ccsc2C(=O)N2CCSCC2)cc1	i
44	COc1ccc(-c2noc(Cn3cc(-c4nc(C5CC5)no4)ccc3=O)n2)cc1	i
45	COc1ccccc1N1CCn2c1nc1c2c(=O)n(CCN2CCOCC2)c(=O)n1C	i
46	COc1ccc(Cl)cc1NC(=O)Cn1nc2c3sccc3ncn2c1=O	i
47	CCCC(=O)N1CCC(c2nnc(-c3ccccc3OC)s2)CC1	i
48	COc1cc(OC)c(NC(=O)Cc2nnc(-c3cnccn3)o2)cc1Cl	i
49	Cc1onc(-c2ccccc2Cl)c1C(=O)N1CCC(CSc2ccccn2)CC1	i
50	Cc1nc(SCC(=O)N2CCCCCC2)c2c3c(sc2n1)CCCC3	i
51	CCN1CCN(CC(=O)Nc2ccccc2C)C(=O)C1=O	i
52	O=C(COc1ccccc1F)NCCCS(=O)(=O)N1CCN(c2ccccc2)CC1	i
53	Cc1nnsc1C(=O)N1CCC(Cn2ccnc2-c2ccccc2)CC1	i
54	COC(=O)c1ccc(C(=O)N(Cc2ccsc2)Cc2ccco2)cc1	i
55	COc1ccc(Cl)cc1NC(=O)CN1CCN(S(=O)(=O)c2c(C)cc(C)cc2C)CC1	i
56	CCOC(=O)c1ccc(NC(=O)CC2C(=O)Nc3c(C)c(-c4ccc(OC)cc4)nn32)cc1 (centres undefined)	i
57	COc1ccc(S(=O)(=O)NCCN2CCN(c3ccccc3F)CC2)cc1OC	i
58	O=C(CN1CCN(CC(=O)c2ccco2)CC1)Nc1ccc(OC(F)(F)F)cc1	i
59	O=S(=O)(c1ccc(N2CCN(Cc3ccccc3)CC2)nn1)C1CCCCC1	i
60	CN(C)S(=O)(=O)N1CCN(c2cc(N3CCCCC3)ncn2)CC1	i

Next compounds follow:
No.	compound	GIRK2 act
61	CSc1cccc(N2C(=O)C3N=NN(Cc4nc(-c5ccccc5C)no4)C3C2=O)c1 (centres undefined)	i
62	CN1[C@@H]2CC[C@H]1CC(OC(=O)c1c[nH]c3ccccc13)C2 (some centres undefined)	i
63	COC(=O)C1c2ccsc2CCN1S(=O)(=O)c1cccs1 (centres undefined)	i
64	CC1Oc2ccccc2OC1C(=O)NCc1ccsc1 (centres undefined)	i
65	CCN1c2ccc(Cl)cc2C(=O)NC12CCN(C(=O)Nc1ccccc1OC)CC2	i
66	COC(=O)c1cn(Cc2cc(F)cc(F)c2)nc1S(=O)(=O)N(C)c1ccc(C)cc1	i
67	CC(C)C(=O)N1CCCc2cc(NC(=O)NCc3ccccc3)ccc21	i
68	CCc1nnc(C2CCN(C(=O)c3ccccc3OC)CC2)s1	i
69	O=C(Nn1cnc2c(cnn2-c2ccccc2)c1=O)c1cccc(Br)c1	i
70	CCc1cccc(OCC(O)Cn2c(N3CCCCC3)nc3c2c(=O)[nH]c(=O)n3C)c1 (centres undefined)	i
71	CC1=C(C(=O)Nc2ccc3[nH]ncc3c2)C(c2ccc(Cl)c(Cl)c2)CC(=O)N1 (centres undefined)	i
72	COc1ccc(CNC(=O)c2[nH]c3ccc(C)cc3c2NC(=O)c2ccc(C)cc2)cc1	i
73	Cc1nnc(C2CCN(C(=O)C3CC(=O)N(c4ccc(F)cc4)C3)CC2)s1 (centres undefined)	i
74	Cn1cc(CC(=O)NCc2cnn3ccccc23)c2ccccc21	i
75	O=C(NCCN1CCN(c2ccc(Cl)cc2)CC1)C(=O)Nc1ccc(F)c(Cl)c1	i
76	CCOC(=O)Cc1csc(NC(=O)C2CCCN(c3ccc(-c4ccc(F)cc4)nn3)C2)n1 (centres undefined)	i
77	O=C(c1ccc(OCc2ccc3ccccc3n2)cc1)N1CCN(c2ccccc2O)CC1	i
78	Cc1ccc(C)c(S(=O)(=O)NCC(=O)Nc2ccc3c(c2)OCO3)c1	i
79	CN(C)CC1CSCCCN1C(=O)/C=C/c1ccco1 (centres undefined)	i
80	CCOc1ccc(-c2cc3c(=O)n(CC(=O)Nc4cc(OC)ccc4OC)ncn3n2)cc1	i

The last 4 records of the part above are carried over, then new ones follow:
No.	compound	GIRK2 act
77	O=C(c1ccc(OCc2ccc3ccccc3n2)cc1)N1CCN(c2ccccc2O)CC1	i
78	Cc1ccc(C)c(S(=O)(=O)NCC(=O)Nc2ccc3c(c2)OCO3)c1	i
79	CN(C)CC1CSCCCN1C(=O)/C=C/c1ccco1 (centres undefined)	i
80	CCOc1ccc(-c2cc3c(=O)n(CC(=O)Nc4cc(OC)ccc4OC)ncn3n2)cc1	i
81	COc1ccc(-c2nnc(SCC(=O)Nc3ccc(OC)c(OC)c3)n2N)cc1	i
82	Cc1csc(COc2ccc(C(=O)NCCCn3ncccc3=O)cc2)n1	i
83	O=C(CN1CCN(S(=O)(=O)c2ccc3c(c2)OCCO3)CC1)c1ccco1	i
84	NC(=O)c1ccccc1OCC#CCNC(=O)c1cncc(Br)c1	i
85	Cc1ccc2c(c1)c1ncn(Cc3nc(C)no3)c(=O)c1n2CC(=O)Nc1ccc(C)c(Cl)c1	i
86	Cc1cc(-n2nnc(-c3nc(-c4ccc5c(c4)OCO5)no3)c2C)ccc1F	i
87	CSc1ccc2nc(N(CCN3CCOCC3)C(=O)c3cc(C)oc3C)sc2c1	i
88	Cc1cccc2sc(NC(=O)C(=O)NCCCN3CCOCC3)nc12	i
89	CCCC(CCC)C(=O)Nc1cc(-c2cccs2)nn1-c1nc(C)cc(=O)[nH]1	i
90	Cc1nc(-c2ccccn2)cc2nn(CC(=O)Nc3ccc(Br)cc3)c(=O)n12	i
91	COc1ccc(CCC(=O)Nc2nc3nc(C)cc(C)c3s2)cc1	i
92	COc1ccc(NC(=O)C23CCC(C)(C(=O)C2)C3(C)C)c(OC)c1 (centres undefined)	i
93	COc1ccc(S(=O)(=O)N2CCN(c3ccc(-n4cccc4)nn3)CC2)c(C)c1C	i
94	O=C(NC1CCCCC1)C1CCN(c2ccc(-c3ccco3)nn2)CC1	i
95	O=C(NCc1ccccc1Cl)C1CCN(c2ncnc3c2sc2ncccc23)CC1	i
96	O=c1c(-c2nc(-c3ccsc3)no2)cccn1Cc1cccc(Cl)c1	i
97	COc1ccc(C(=O)Nc2sc3c(c2-c2nc4ccccc4s2)CCN(C(C)C)C3)cc1	i
98	Cc1ccc(F)cc1NC(=O)CSc1nc2nc(N3CCC(C)CC3)sc2c(=O)n1C(C)C	i
99	CCCCOc1ccc(C(=O)NCc2cc(-c3ccncc3)n(C3CCCC3)n2)cc1	i
100	Cc1ccc(Cl)cc1-n1nnc(C(=O)Nc2ccc(SC#N)cc2)c1C	i

Retrieved by compound from the entries so far, 7 records:
No.	compound	GIRK2 act
78	Cc1ccc(C)c(S(=O)(=O)NCC(=O)Nc2ccc3c(c2)OCO3)c1	i
62	CN1[C@@H]2CC[C@H]1CC(OC(=O)c1c[nH]c3ccccc13)C2 (some centres undefined)	i
90	Cc1nc(-c2ccccn2)cc2nn(CC(=O)Nc3ccc(Br)cc3)c(=O)n12	i
70	CCc1cccc(OCC(O)Cn2c(N3CCCCC3)nc3c2c(=O)[nH]c(=O)n3C)c1 (centres undefined)	i
35	COc1ccccc1OCC(=O)N1CC(c2nc(-c3cccc(Cl)c3)no2)C1	i
83	O=C(CN1CCN(S(=O)(=O)c2ccc3c(c2)OCCO3)CC1)c1ccco1	i
99	CCCCOc1ccc(C(=O)NCc2cc(-c3ccncc3)n(C3CCCC3)n2)cc1	i

Carrying on:
No.	compound	GIRK2 act
101	O=C(c1ccco1)N1CCC(Cn2ccnc2-c2ccccc2)CC1	i
102	Cc1ccc(-n2cc(C(=O)NCCCc3ccccc3)nn2)cc1	i
103	Cc1noc(C)c1CCC(=O)N1CCN(CCn2ccnc2-c2ccccc2)CC1	i
104	COc1cc(OC)cc(C(=O)NCC2CCN(Cc3ccccc3)CC2)c1	i
105	Cc1ccc(-n2c(N3CCOCC3)nc3cc(C(=O)NCc4ccc(F)cc4)ccc3c2=O)cc1C	i
106	Cc1ccc(S(=O)(=O)N2CCC(c3nc(-c4cccc(Br)c4)no3)CC2)cc1	i
107	Cc1ccc(S(=O)(=O)c2cnc(SCC(=O)Nc3cccc(C)c3)nc2N)cc1	i
108	Cc1ccccc1OCC(O)Cn1c(SCC(N)=O)nc2c1c(=O)n(C)c(=O)n2C (centres undefined)	i
109	Cc1cc(NC(=O)Cn2cc(-c3nc(-c4ccccc4F)no3)ccc2=O)no1	i
110	Cc1ccc(-c2ccc3nnc(CCC(=O)N4CCN(c5cc(Cl)ccc5C)CC4)n3n2)cc1C	i
111	Cc1cc(C)n(-c2ccc(=O)n(CCNS(=O)(=O)c3cccc(Cl)c3Cl)n2)n1	i
112	O=S(=O)(NCc1ccc(C(O)c2cccs2)s1)C1CC1 (centres undefined)	i
113	CN(C)S(=O)(=O)c1ccc(C(=O)N2CCN(Cc3nc(-c4ccc(F)cc4)cs3)CC2)cc1	i
114	COc1ccc(-c2c(C)oc3cc(OCCN4CCC(C)CC4)ccc3c2=O)cc1OC	i
115	CN(C)CC1COCCN1C(=O)CCC1CCCC1 (centres undefined)	i
116	CN(C)CCCN1C(=O)C(=O)C(=C(O)c2ccncc2)C1c1ccc(C(C)(C)C)cc1 (centres undefined)	i
117	COC(=O)Cn1c(=O)c2c(nc(-n3nc(C)cc3C)n2Cc2ccccc2)n(C)c1=O	i
118	CCc1c(C)nc2n(c1=O)CC(C(=O)NCC1CCCO1)CS2 (centres undefined)	i
119	Cc1cc(C)cc(-n2cc(C(=O)N3CCC(NC(=O)c4ccc(F)c(F)c4)CC3)nn2)c1	i
120	COc1ccccc1NC(=O)C1COCC(=O)N1Cc1ccccc1 (centres undefined)	i
121	O=C(c1cccc(N2C(=O)CCC2=O)c1)N1CC(Oc2nc3ccccc3s2)C1	i
122	COc1ccc(CNC(=O)NC2CCCC(O)C2)cc1OC (centres undefined)	i
